StopGo reporter = FMDV 2A StopGo reporter, luciferase signal; Potency, µM (series often up to 57.9 µM), for the others: at the top dose signal change, negative = less light; AID 1159524; human cells with a luciferase reporter of 2A StopGo recoding; control for the full effect not named in the record; hit rate 1.2% among 410,000; active = well fitted falling curve with a large enough effect; inconclusive = small, poorly fitted or top-dose-only effect; inactive = no such curve, though single readings can be large or run the other way; tested in HEK293T cells; note: % is set by controls: 0 for no effect and ±100 for the full control effect; nearly all actives have a fitted effect of over 45% in size; luciferase light after 4 h
Cruzain noTriton = inhibitors of Trypanosoma cruzi cruzain without detergent; P25779; purified cruzain, Z-FR-AMC fluorescence, no detergent; Potency, µM, for the others: max response, negative = inhibition, most hits filed as inhibitors; hit rate 2.3% among 200,000;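 note: plate controls were enzyme without inhibitor for no effect and buffer without enzyme for full effect; nearly all actives have a fitted effect of over 40% in size; top concentration of the series not given in the record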
Target sequence (P25779 123-467 limits assumed): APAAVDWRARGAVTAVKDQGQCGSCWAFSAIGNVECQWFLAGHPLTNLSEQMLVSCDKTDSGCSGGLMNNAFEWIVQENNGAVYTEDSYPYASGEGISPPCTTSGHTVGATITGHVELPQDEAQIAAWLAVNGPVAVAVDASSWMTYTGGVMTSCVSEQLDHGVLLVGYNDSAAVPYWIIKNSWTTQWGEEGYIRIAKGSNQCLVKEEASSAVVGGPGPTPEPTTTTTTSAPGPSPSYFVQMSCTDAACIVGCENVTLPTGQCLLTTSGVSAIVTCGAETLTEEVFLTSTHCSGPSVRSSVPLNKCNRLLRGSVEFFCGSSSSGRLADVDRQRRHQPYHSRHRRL
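Detergent-free condition (0.00005% Triton X-100) in acetate buffer pH 5.5 with DTT. 1.5 nM enzyme and compound were pre-mixed 15 min, then 2 uM Z-FR-AMC substrate added; reaction progress from fluorescence change between first and third reads (60 s).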
MARV entry inh = blocks Marburg virus binding to or entry into cells; AID 540276; hit rate 1.8% among 300,000; Potency, µM (titrated, usually from 37.8 µM), inactives show at the top dose activity change, negative = inhibition, actives largely listed as inhibitors; Marburg virus pseudotyped entry inhibition, cell reporter; control for the full effect not named in the record; about a third of the inactives were read at about 46 µM; active = well fitted inhibition curve with a large enough effect; inconclusive = small, poorly fitted or top-dose-only effect, or effect the other way; inactive = flat fitted curve, though single readings scatter; tested in HEK293 cells; about a fifth of its hits are not listed in these tables; note: % is set by controls: 0 for no effect and ±100 for the full control effect; luciferase read-out
NS1 inh = inhibitors of influenza NS1 protein function | hit rate 0.4% among 270,000 | Potency, µM (titrated, usually from 46.1 µM), for inactives: at the top dose activity, positive = more growth | S. cerevisiae slowed by influenza A NS1, growth recovery by OD600; active means well fitted rising curve with a large enough effect; inconclusive means small, poorly fitted or top-dose-only effect; inactive means no such curve, though single readings can be large or run the other way; note: nearly all actives have a fitted effect of over 50% in size
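Compounds were scored for reversing the slow growth caused by influenza A NS1 in S. cerevisiae, measured by optical density at 600 nm. Assay medium contained 2% galactose at pH 6.0; NS1-free yeast of the same strain were the positive control.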
SARS PLpro yeast = SARS-CoV PLP inhibition in yeast; S. cerevisiae expressing SARS-CoV PLpro, growth rescue; control for the full effect not named in the record; Potency, µM (titrated, usually from 32.9 µM), for inactives: top-dose activity, positive = growth rescue; hit rate 0.19% among 330,000; AID 485353; active means well fitted rising curve with a large enough effect; inconclusive means small, poorly fitted or top-dose-only effect; inactive means no such curve, though single readings can be large or run the other way; note: 0% is about no effect; nearly all actives have a fitted effect of over 55% in size; growth read by luminescence after 48 h
Cruzain Triton = cruzain (T. cruzi) inhibition with detergent | P25779 | Potency, µM, inactives show max response, negative = inhibition, actives largely listed as inhibitors | hit rate 0.43% among 200,000 | purified cruzain, Z-FR-AMC fluorescence, 0.01% Triton;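 note: plate controls were neutral wells for no effect and buffer without enzyme for full effect; nearly all actives have a fitted effect of over 40% in size; top concentration of the series not given in the record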
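15 min RT preincubation of 1.5 nM cruzain with compound, then 2 uM Z-FR-AMC added; kinetic AMC fluorescence, 60 s delta. Triton X-100 0.01%, pH 5.5.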
LASV entry inh = inhibitors of Lassa virus binding or cell entry | Lassa virus pseudotype entry inhibition, cell reporter; control for the full effect not named in the record | Potency, µM (doses to about 37.9 µM), inactives show at the highest dose activity change, negative = inhibition, hits mostly inhibitors | AID 540256 | hit rate 1.2% among 300,000; active means well fitted inhibition curve with a large enough effect; inconclusive means small, poorly fitted or top-dose-only effect, or effect the other way; inactive means flat fitted curve, though single readings scatter; tested in HEK293 cells; note: % is set by controls: 0 for no effect and ±100 for the full control effect; nearly all actives have a fitted effect of over 50% in size; luciferase read-out
RE007 growth inh = less growth of the S. pombe RE007 Vpr strain; S. pombe RE007 Vpr strain, BacTiter-Glo ATP luminescence, 24 h; control for the full effect not named in the record; Potency, µM (top dose mostly 92.2 µM), for the others: at the top dose activity change, negative = less growth; hit rate 0.21% among 360,000; AID 651644; active = well fitted falling curve with a large enough effect; inconclusive = small, poorly fitted or top-dose-only effect; inactive = no such curve, though single readings can be large or run the other way;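 note: % is set by controls: 0 for no effect and ±100 for the full control effect; nearly all actives have a fitted effect of over 50% in size; the assay follows cell death caused by Vpr and the record does not say whether a fall means rescue or toxicity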
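Fission yeast RE007 carrying one integrated HIV-1 vpr copy, seeded at OD 0.01 in PMG+AL medium with 23 nL pinned compound. Grown 24 h at 30 degrees; viability read by BacTiter-Glo luminescence after 5 min.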
Active calls of the source: *; u = inconclusive; x = no result given; & = joins results of further samples; [ ] = dose if it differs, or a comment. Unless noted, calls come from the whole dose curve; as a rule, active = well fitted curve in the direction sought with a large enough effect; inconclusive = small, poorly fitted or top-dose-only effect, or another doubt; inactive = no such curve, though single readings can be large; an effect the other way counts as inactive or inconclusive. Potency is the fitted concentration of half-maximal effect.

SMILES	StopGo reporter	Cruzain noTriton	MARV entry inh	NS1 inh	SARS PLpro yeast	Cruzain Triton	LASV entry inh	RE007 growth inh
Cc1cc2cc(CNC(=O)CC(C)C)ccc2n1C	0%	4%	5%	17%	-10%	2.5%	u	-21%
O=C(CSc1nc2c(sc3ccccc32)c(=O)n1Cc1ccco1)NCC1CCCO1 (stereo not drawn)	0%	-23%	u	-6%	1%	0.9%	8%	3%
Cc1ccc(C(=O)c2oc3ccccc3c2NC(=O)c2cc(-c3ccc(Cl)cc3)on2)cc1	-1%	5%	4%[46.1 µM]	x	x	-0.5%	2%[46.1 µM]	x
COc1ccc(CCNC(=O)COC(=O)/C=C/c2cccc(F)c2)cc1	-1%	x	10%	x	2%	x	4%	2%
COc1ccc(N2CCN(C(=O)Cc3nn(C)c(=O)c4ccccc34)CC2)cc1	u	5%	-41%	4%	7%	1.7%	1%	-7%
COc1ccc(NC(=O)CCC(=O)c2cccs2)cc1S(=O)(=O)Nc1ccc(Cl)cc1	9%	-1%	-42%	-3%	-4%	-4.9%	6%	12%
COC(=O)C1=C(c2ccccc2OCc2ccccc2)C[C@@H]2CC[C@H]1N2C(=O)NCCOc1ccccc1Cl	-25%	x	1%	x	0%	x	x	3%
CCCN1CCC(=O)N([C@H](CSc2ccc(Br)cc2)Cc2ccccc2)CC1	-26%	x	x	0%	0%	x	x	-6%
Cc1ccc(-c2ccnc(-c3ccc(O)cc3)n2)cc1	49%[activator]	x	-7%[46.1 µM]	x	2%	x	-16%	60%
CC(OC(=O)C1=COCCO1)C(=O)Nc1ccc(Oc2ccccc2)cc1 (stereo not drawn)	-13%	4%	-18%	1%	-3%	-1.0%	u	-1%
CCOC(=O)c1[nH]c(C)c(C(=O)N(C)Cc2ccccc2)c1C	-22%	8%	6%	0%	-7%	2.4%	-8%	3%
Cn1c(=O)[nH]c(=O)c2c1nc(N1CCCCC1)n2C/C=N/NC(=O)c1cc(Br)ccc1O	-14%	x	2%	-6%	-2%	x	x	1%
O=C(CCc1nc2ccccc2c(=O)[nH]1)NCc1ccco1	-6%	x	-22%[46.1 µM]	x	0%	x	u	2%
CC(NC(=O)C1CCN(S(=O)(=O)c2ccc(Br)s2)CC1)c1ccccc1 (stereo not drawn)	5%	x	-7%[46.1 µM]	-3%	-3%	x	-26%[46.1 µM]	8%
CCOc1cc(/C=N/NC(=O)c2cccnc2)ccc1O	12%	x	0%[46.1 µM]	11%	0%	x	5%[46.1 µM]	3%
CN1CCN(C(=O)CSc2nc3ccc(NC(=O)c4ccccc4F)cc3s2)CC1	15%	x	x	-4%	-1%	x	x	6%
Cc1cc(C)n(-c2ccc(C(=O)OCn3nnc4ccccc4c3=O)cc2)n1	-19%	12%	23%	-33%	-11%	1.9%	6%	7%
CCCCSc1nc(-c2ccc(OC)cc2)ccc1C#N	-4%	-4%	u	x	x	-0.9%	5%[46.1 µM]	x
CCc1ccc(N2C(=O)NC(=O)/C(=C\c3cccn3CCOc3ccc(C(C)C)cc3)C2=O)cc1	-14%	10µM*	u	9%	10%	-1.0%	u	5%
O=C(Nc1nnc(COc2ccccc2)s1)c1ccco1	8%	u	-8%[46.1 µM]	u	14%	9.7%	30%	-9%
O=C(Nc1ccccc1C(=O)Nc1ccccn1)c1ccccc1F	-24%	x	x	4%	1%	x	x	u
Cc1cc(C)cc(NC(=O)C2CCN(C(=O)[C@@H]3Cc4ccccc4CN3)CC2)c1	-17%	x	x	9%	7%	x	x	14%
Cc1nc2c3ccccc3nc(NNC(=O)CCC(=O)N3CCN(c4cccc(C(F)(F)F)c4)CC3)n2n1	u	u	u	x	x	-4.3%	10%[46.1 µM]	x
Cn1c(O)c(C=NCCCNC2CCCCC2)c(=O)n(C)c1=O	1%	3%	1%	0%	-16%	-1.0%	-8%	11%
CCN(CC)CCNC(CC(=O)Nc1ccc(Cl)cc1Cl)C(=O)O (stereo not drawn)	-17%	4%	10%	1%	2%	-2.7%	2%	-3%
COc1ccc(N2CCN(Cc3nc4c(c(=O)[nH]c(=O)n4C)n3Cc3ccccc3)CC2)cc1	-3%	2%	9%[46.1 µM]	x	x	-1.0%	-20%[46.1 µM]	x
Cc1cccc(C(=O)N2CCCC(Nc3ccc(C)c(C)c3)C2)n1 (stereo not drawn)	-10%	x	x	1%	-1%	x	x	-6%
CS(=O)(=O)c1ccc(C(=O)OCC(=O)c2ccc(Cl)s2)cc1	-9%	x	u	x	-3%	x	8%[46.1 µM]	-11%
CSCCC(NC(=O)COc1ccccc1)C(=O)N1CCN(c2ccccc2Cl)CC1 (stereo not drawn)	24%	x	-16%	x	-12%	x	u	5%
COc1ccc2oc(-c3ccc(C)c(NC(=O)CSc4ccc(Cl)cc4)c3)nc2c1	43%&59%[activator]	-1%&16%	-27%[46.1 µM]	-11%	6%	u	-19%[46.1 µM]	-13%
CCc1ccc(OCC(=O)Nc2ccc3c(c2)c2ccccc2n3CC)cc1	-16%	14%	1%[46.1 µM]	x	x	-2.3%	-14%[46.1 µM]	x
Cc1[nH]nc(SCC(=O)N2CCCCC2)c1[N+](=O)[O-]	64%[activator]	-4%	-1%[46.1 µM]	3%	5%	-3.6%	5%	-18%
CCOc1ccccc1N(CC(=O)Nc1ccc(C)cc1)S(C)(=O)=O	28%	9%	-22%	-5%	6%	5.3%	8%	19%
COc1ccccc1NC(=O)C1=C(C)NC(=O)NC1c1ccccc1[N+](=O)[O-] (stereo not drawn)	18%	x	5%[46.1 µM]	x	-2%	x	8%	-7%
CC(=O)C1=C(C)N2CCN=C2S1	2%	x	-12%[46.1 µM]	0%	1%	x	-5%[46.1 µM]	8%
O=Cc1ccc(OC(=O)/C=C/c2ccccc2)cc1	10%	x	x	-41%	-4%	x	x	-12%
CNC(=O)c1ccccc1Sc1ccccc1CO	-5%	x	12%[46.1 µM]	5%	1%	x	-4%[46.1 µM]	14%
Cc1ccc(C)c(-n2c(=O)c(C#N)cc3c(=O)n4ccccc4nc32)c1	-9%	x	9%[46.1 µM]	x	-1%	x	-7%[46.1 µM]	14%
O=C(CN1CCN(CCC(=O)Nc2ccccc2F)CC1)Nc1ccc(Cl)cc1	-17%	-4%	-11%	0%	16%	3.1%	-2%	-14%
Cc1cccc(OCCCC(=O)NC(C)C)c1	7%	1%	-7%	-7%	-1%	3.7%	1%	8%
Cc1cc(Cl)cc(C)c1OCCn1ccnc1	-22%	x	1.3µM*	-43%	-2%	x	3.5µM*	-19%
COc1cc(NC(=O)C(CCSC)NS(=O)(=O)c2ccc3c(c2)oc(=O)n3C)cc(OC)c1 (stereo not drawn)	20%	2%	x	x	x	-0.1%	20%[46.1 µM]	x
NC(=O)C[C@H]1NC(=O)[C@H](CCC(=O)O)NC(=O)c2cc([N+](=O)[O-])cc(I)c2NCCC[C@@H](C(N)=O)NC1=O	-3%	u	-4%	-8%	-2%	-7.1%	6%	9%
COc1ccc(NC(=O)COC(=O)COc2cccc(Br)c2)cc1OC	-2%	x	14%[46.1 µM]	x	-3%	x	-2%	15%
CNC(=O)c1cc2cc(Br)ccc2s1	7%	x	15%[46.1 µM]	x	-3%	x	-1%	-11%
CC/C(=N\NC(=O)CNC(=O)/C=C/c1ccc(OC)cc1)c1ccccc1	12%	x	-4%[46.1 µM]	-16%	-6%	x	12%[46.1 µM]	-8%
O=C(/C=C/c1cccs1)NNC(=O)c1cccc([N+](=O)[O-])c1	9%	x	8%[46.1 µM]	x	23%	x	21%[46.1 µM]	-6%
Cc1ccc(S(=O)(=O)N2CCCC2C(=O)NCc2ccccc2Cl)cc1 (stereo not drawn)	3%	x	x	-4%	4%	x	x	14%
O=C(NC1CCCC1)C(c1ccccn1)N(C(=O)c1csnn1)C1CC1 (stereo not drawn)	17%	-1%	u	2%	4%	4.9%	26%	5%
O=C(COC(=O)Cc1ccc(Cl)cc1)Nc1ccccc1F	18%	x	4%[46.1 µM]	-2%	-2%	x	1%	4%
CCCCOC(=O)Nc1ccc(S(=O)(=O)Nc2nc(C)cc(C)n2)cc1	50%[activator]	-14%	-6%&-6%	6%	0%	-0.1%	-22%[14.3 µM]	1%
COC(=O)C12CCC3(SCCS3)C(C(=O)OC)(CCC13SCCS3)C2	-26%	14%	u	-7%	-37%	-1.8%	-11%	-1%
O=C(Nn1cnnc1)c1ccccc1-c1ccccc1	-17%	14%	-2%[46.1 µM]	-4%	1%	3.3%	-15%	5%
Cc1cc(-c2nnc(SCC(=O)c3ccc(F)cc3)o2)no1	-1%	-17%	-24%	-2%	-12%	-2.3%	3%	-3%
O=C(CSc1ncc(C(F)(F)F)cc1Cl)NCC1CCCO1 (stereo not drawn)	-21%	x	x	u	0%	x	x	9%
Cc1c(CCNC(=O)c2ccco2)sc2nc(-c3ccc(F)cc3)nn12	u	3%	x	x	x	-4.9%	17%[46.1 µM]	x
CCOC(=O)/C=c1\s/c(=C\c2c(OC)ccc3ccccc23)c(=O)n1CC(=O)NCC1CCCO1 (stereo not drawn)	-5%	u	u	-4%	-11%	-1.1%	u	-3%
O=C(O)c1ccc(N2CCCCC2)cc1O	25%	x	x	6%	0%	x	x	1%
O=C(CCn1cccc1)NCCc1ccc(Cl)cc1	0%	11%	0%	1%	-9%	2.6%	9%	1%
COc1ccc(NC(=O)Cc2ccc(C)c(C)c2)cc1S(=O)(=O)N1CCCCC1	-9%	x	u	x	8%	x	u	10%

Later entries:
SMILES	StopGo reporter	Cruzain noTriton	MARV entry inh	NS1 inh	SARS PLpro yeast	Cruzain Triton	LASV entry inh	RE007 growth inh
CC(=O)Nc1cccc(Oc2nc(C)cc(C)c2C#N)c1	-22%	7%	x	-6%	-3%	5.2%	x	-1%
O=c1ccc(=O)n(-c2ccccc2)[nH]1	-4%	x	7%	-1%	5%	x	u	32%
Cc1ccc2oc(-c3ccc(NC(=O)CC(C)C)cc3)nc2c1	47%[activator]	-15%	u	0%	-4%	1.4%	-16%	-12%
COc1cccc(C(=O)NCC(=O)N/N=C(\C)Cc2ccccc2)c1	0%	x	27%[46.1 µM]	-5%	6%	x	u	-15%
Oc1ccc(C2C=C(c3ccc(F)cc3)Nc3ncnn32)cc1 (stereo not drawn)	-17%	x	x	4%	1%	x	x	-12%

Random draw from the library (roughly 4.6% active in at least one column).
